Source: PubChem (Broad Institute)
HIV Env fusion: inhibitors of HIV Env-mediated cell fusion | HeLa-JRFL Env/CEM21 cell fusion, luciferase | inhibition, % at 12.3 µM | 1.1% of 360,000 active;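 active = mean replicate inhibition score of at least 50 and every replicate individually at or above 50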;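 also: 0% = plate neutral controls and 100% = maraviroc near 300 nM; one replicate is shown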
UUG fidelity: yeast start codon fidelity modulation. S. cerevisiae UUG-firefly luciferase reporter, luminescence/redox ratio. activity score, % at 18.7 µM. 0.13% of 350,000 active;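 active = replicate mean at a twofold rise or more, about +100% in these data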;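 also: firefly luciferase made from a UUG start codon reports start codon fidelity; reporter light over untreated wells divided by growth signal over untreated wells; some hits fall short of that in this replicate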
Starred values were filed as active, the others as inactive; [ ] = remark or other dose.

Order of results: HIV Env fusion | UUG fidelity
- O=C(Cc1cccnc1)N[C@H]1CC[C@H](CCn2cc(Cc3ccccc3)nn2)O[C@H]1CO
 : 0[16.7 µM] | -22
- C[C@H]1CN([C@@H](C)CO)C(=O)Cc2cc(NC(=O)CCN3CCOCC3)ccc2O[C@@H]1CN(C)S(=O)(=O)c1ccc(Cl)cc1
 : -7[16.7 µM] | 5
- CC(=O)N(C)C[C@H]1Oc2ncc(-c3cccc(F)c3)cc2C(=O)N([C@@H](C)CO)C[C@H]1C
 : 6[16.7 µM] | -1
- CO[C@@H]1CN(C)C(=O)c2cc(NC(C)=O)ccc2OC[C@H](C)N(Cc2cc(F)ccc2F)C[C@H]1C
 : 15[16.7 µM] | -13
- C[C@@H]1CN([C@@H](C)CO)S(=O)(=O)c2ccc(-c3cccc(C(=O)N(C)C)c3)cc2O[C@H]1CN(C)C(=O)Nc1ccccc1
 : -73[16.7 µM] | 6
- C[C@@H]1CCCCO[C@H](CN(C)C(=O)C2CCCCC2)[C@H](C)CN([C@@H](C)CO)C(=O)c2cc(NS(=O)(=O)c3ccccc3)ccc2O1
 : -6[16.7 µM] | -2
- CO[C@H]1CN(C)C(=O)c2ccc(NS(C)(=O)=O)cc2OC[C@@H](C)N(CC2CCOCC2)C[C@H]1C
 : 11[16.7 µM] | -6
- C[C@H]1CN([C@@H](C)CO)C(=O)c2cc(C#CCN(C)C)cnc2O[C@@H]1CN(C)C(=O)Nc1ccccc1F
 : 3[16.7 µM] | 4
- C[C@@H]1CCCCO[C@H](CN(C)S(=O)(=O)c2ccc(F)cc2)[C@@H](C)CN([C@H](C)CO)C(=O)c2cc(NC(=O)Nc3ccc(F)cc3)ccc2O1
 : -11[16.7 µM] | -13
- CCS(=O)(=O)NCC[C@@H]1CC[C@@H](NC(=O)Nc2ccccc2)[C@H](CO)O1
 : -6[16.7 µM] | 5
- C[C@H](CO)N1C[C@H](C)[C@H](CN(C)C(=O)C2CC2)Oc2cc(C3=CCCCC3)ccc2S1(=O)=O
 : 26[16.7 µM] | 10
- CC(=O)N(C)C[C@H]1Oc2cc(C3=CCCC3)ccc2S(=O)(=O)N([C@@H](C)CO)C[C@@H]1C
 : 20[16.7 µM] | 12
- O=C(C[C@H]1CC[C@@H](NC(=O)c2cccnc2)[C@@H](CO)O1)NCCN1CCCCC1
 : -2[16.7 µM] | -2
- C[C@H](CO)N1C[C@H](C)[C@@H](CN(C)C(=O)Nc2ccc(C(F)(F)F)cc2)OCCCC[C@H](C)Oc2ccc(NS(C)(=O)=O)cc2C1=O
 : -2[16.7 µM] | 0
- C[C@H](CO)N1C[C@H](C)[C@@H](CN(C)C)Oc2cc(-c3ccccc3)ccc2S1(=O)=O
 : -10[16.7 µM] | 1
- COc1ccc(S(=O)(=O)Nc2ccc3c(c2)C(=O)N([C@H](C)CO)C[C@@H](C)[C@H](CN(C)S(=O)(=O)c2ccc(OC)cc2)OCCCC[C@H](C)O3)cc1
 : -19[16.7 µM] | -4
- C[C@@H]1CN([C@H](C)CO)C(=O)c2cc(NC(=O)CCCCCC(=O)Nc3ccccc3N)ccc2O[C@@H](C)CCCCO[C@@H]1CN(C)S(=O)(=O)c1ccc(Cl)cc1
 : 0[16.7 µM] | -14
- COc1ccc(NC(=O)N(C)C[C@@H]2Oc3ccc(NC(=O)CCCCCC(=O)Nc4ccccc4N)cc3CC(=O)N([C@H](C)CO)C[C@H]2C)cc1
 : 9[16.7 µM] | -1
- C[C@@H]1CN([C@H](C)CO)S(=O)(=O)c2ccc(C#Cc3ccncc3)cc2O[C@@H]1CN(C)CC1CC1
 : -31[16.7 µM] | -12
- O=S(=O)(N[C@H]1CC[C@H](CCn2cc(-c3ccccn3)nn2)O[C@@H]1CO)c1cccc(F)c1
 : -16[16.7 µM] | 3

The list continues.
Order of results: HIV Env fusion | UUG fidelity
- COCC(=O)N1C[C@H](C)[C@@H](OC)CN(C)C(=O)c2cc(NC(=O)c3ccc(OC)cc3)ccc2OC[C@@H]1C
 : 26[16.7 µM] | 5
- C[C@H](CO)N1C[C@H](C)[C@H](CN(C)CC2CCCCC2)OCCCC[C@H](C)Oc2ccc(NC(=O)Nc3ccccc3)cc2C1=O
 : -7[16.7 µM] | 14
- C[C@@H]1CN([C@H](C)CO)C(=O)c2cccc(NS(=O)(=O)c3ccc(F)cc3)c2O[C@H]1CN(C)C(=O)Nc1ccc(C(F)(F)F)cc1
 : -2[16.7 µM] | -6
- C[C@@H]1CN([C@@H](C)CO)C(=O)c2cccc(N(C)C)c2O[C@@H]1CN(C)Cc1ccc(C(=O)O)cc1
 : -42[16.7 µM] | -5
- C[C@@H]1CN([C@H](C)CO)S(=O)(=O)c2ccc(C#CC3CC3)cc2O[C@H]1CN(C)C(=O)CN(C)C
 : 16[16.7 µM] | 28
- Cc1ccc(-c2cnc3c(c2)C(=O)N([C@@H](C)CO)C[C@H](C)[C@@H](CN(C)C(=O)c2ccc(F)cc2)O3)cc1
 : -32[16.7 µM] | -3
- C[C@H]1CN([C@@H](C)CO)C(=O)c2cc(C#Cc3ccccc3)cnc2O[C@@H]1CN(C)Cc1ccccn1
 : 0[16.7 µM] | 9
- CC(=O)N[C@@H]1CC[C@@H](CCNC(=O)C2CCC2)O[C@H]1CO
 : -14[16.7 µM] | 6
- C[C@@H]1CN([C@@H](C)CO)C(=O)Cc2cc(NS(=O)(=O)c3ccccc3)ccc2O[C@H]1CN(C)C(=O)Nc1cccc2ccccc12
 : 2[16.7 µM] | 29
- CO[C@@H]1CN(C)C(=O)c2cc(NS(=O)(=O)c3cccc(C)c3)ccc2OC[C@@H](C)NC[C@@H]1C
 : 12[16.7 µM] | -12
- C=CCN1Cc2ccccc2[C@H]2OC(c3ccc(OCCCO)cc3)=N[C@@]2(CC=C)C1=O
 : 9[16.7 µM] | -8
- Cc1noc(C)c1NC(=O)Nc1ccc2c(c1)C(=O)N([C@H](C)CO)C[C@H](C)[C@H](CN(C)C(=O)Nc1ccccc1)OCCCC[C@H](C)O2
 : 3[16.7 µM] | 24
- C[C@H](CO)N1C[C@H](C)[C@H](CN(C)S(=O)(=O)c2ccc(F)cc2)OCCCC[C@H](C)Oc2ccc(NC(=O)Nc3ccc4c(c3)OCO4)cc2C1=O
 : 3[16.7 µM] | -2
- Cc1ccc(S(=O)(=O)Nc2ccc3c(c2)C(=O)N([C@H](C)CO)C[C@H](C)[C@H](CN(C)Cc2ccncc2)OCCCC[C@H](C)O3)cc1
 : -6[16.7 µM] | 3
- C[C@@H]1CCCCO[C@H](CN(C)Cc2ccncc2)[C@@H](C)CN([C@@H](C)CO)C(=O)c2cc(NS(C)(=O)=O)ccc2O1
 : 0[16.7 µM] | 0
- C[C@@H]1CCCCO[C@H](CN(C)C(=O)Nc2cccc3ccccc23)[C@H](C)CN([C@H](C)CO)C(=O)c2cc(NS(=O)(=O)c3ccccc3)ccc2O1
 : 62*[16.7 µM] | 18
- C[C@H](CO)N1C[C@H](C)[C@@H](CN(C)S(=O)(=O)c2ccc(Cl)cc2)Oc2ccc(NC(=O)CCN3CCOCC3)cc2CC1=O
 : -12[16.7 µM] | 4
- COc1ccc(NC(=O)Nc2ccc3c(c2)C(=O)N([C@H](C)CO)C[C@H](C)[C@@H](CN(C)C(=O)Nc2ccccc2)OCCCC[C@@H](C)O3)cc1
 : -14[16.7 µM] | 3
- COc1ccc(COCC23N=C4SCc5ccccc5C(=O)N4[C@H](c4ccccc4O2)[C@H]3COC(=O)c2ccccc2)cc1
 : 14[16.7 µM] | -7
- CCCC#Cc1cnc2c(c1)C(=O)N([C@@H](C)CO)C[C@@H](C)[C@@H](CN(C)S(=O)(=O)c1cn(C)cn1)O2
 : -12[16.7 µM] | 18

The list continues:
Order of results: HIV Env fusion | UUG fidelity
- CNC[C@@H]1OCCCC[C@H](C)Oc2ccc(NC(=O)c3ccccc3)cc2C(=O)N([C@@H](C)CO)C[C@@H]1C
 : 4[16.7 µM] | 21
- CCC(=O)Nc1ccc2c(c1)OC[C@H](C)N(C(=O)NC(C)C)C[C@H](C)[C@H](OC)CN(C)C2=O
 : 13[16.7 µM] | 6
- C[C@@H]1CCCCO[C@@H](CN(C)C(=O)Cc2ccccc2)[C@H](C)CN([C@H](C)CO)C(=O)c2cc(NS(=O)(=O)c3ccc(Cl)cc3)ccc2O1
 : -1[16.7 µM] | -12
- COc1ccccc1-c1cn(CC[C@H]2CC[C@@H](NC(=O)c3ccccc3F)[C@H](CO)O2)nn1
 : -4[16.7 µM] | 8
- Cc1noc(C)c1S(=O)(=O)Nc1ccc2c(c1)CC(=O)N([C@@H](C)CO)C[C@H](C)[C@H](CN(C)C(=O)Nc1ccc(C(F)(F)F)cc1)O2
 : 2[16.7 µM] | -15
- COc1ccc(S(=O)(=O)Nc2ccc3c(c2)C(=O)N([C@@H](C)CO)C[C@@H](C)[C@H](CN(C)Cc2ccc(C(=O)Nc4ccccc4N)cc2)OCCCC[C@@H](C)O3)cc1
 : 4[16.7 µM] | -5
- CC(=O)Nc1ccc2c(c1)C(=O)N(C)[C@H]1CC[C@H](CC(=O)NCc3ccccc3Cl)O[C@@H]1CO2
 : 9[16.7 µM] | -3
- C[C@@H]1CN([C@H](C)CO)C(=O)Cc2cc(NC(=O)Nc3ccc4c(c3)OCO4)ccc2O[C@@H]1CN(C)Cc1ccc(Cl)c(Cl)c1
 : -15[16.7 µM] | -6
- C[C@H]1CN([C@@H](C)CO)C(=O)c2cc(C3=CCCCC3)cnc2O[C@H]1CN(C)C(=O)c1ccc2c(c1)OCO2
 : 2[16.7 µM] | 15
- C[C@H](CO)N1C[C@H](C)[C@@H](CN(C)C(=O)c2cnccn2)Oc2cc(C#CC3CC3)ccc2S1(=O)=O
 : -21[16.7 µM] | 8
- C[C@@H]1CN([C@@H](C)CO)C(=O)c2cc(NC(=O)Cc3cn(C)c4ccccc34)ccc2O[C@H]1CN(C)Cc1ccc(Oc2ccccc2)cc1
 : -13[16.7 µM] | 6
- C[C@H]1CN([C@@H](C)CO)S(=O)(=O)c2ccc(C#CC3(O)CCCC3)cc2O[C@H]1CN(C)C(=O)Nc1ccccc1
 : -22[16.7 µM] | 0
- CCC(=O)N(C)C[C@@H]1Oc2ncc(-c3ccccc3OC)cc2C(=O)N([C@@H](C)CO)C[C@@H]1C
 : -6[16.7 µM] | 10
- C[C@@H]1CCCCO[C@@H](CN(C)S(=O)(=O)c2cccs2)[C@H](C)CN([C@H](C)CO)C(=O)c2cc(NS(=O)(=O)c3cn(C)cn3)ccc2O1
 : -46[16.7 µM] | -1
- CN1C(=O)c2cc(NC(=O)Cc3cccs3)ccc2OC[C@H]2O[C@@H](CC(=O)O)CC[C@H]21
 : 2[16.7 µM] | -5
- C[C@H]1CN([C@@H](C)CO)C(=O)c2cccc(NC(=O)C3CCOCC3)c2O[C@H]1CN(C)C(=O)Nc1ccc(C(F)(F)F)cc1
 : -12[16.7 µM] | -12
- O=C(C[C@H]1CC[C@@H](NC(=O)c2ccc3c(c2)OCO3)[C@@H](CO)O1)NCc1ccc(F)cc1
 : -86[16.7 µM] | -1
- C[C@@H]1CN([C@H](C)CO)C(=O)c2cc(Br)cnc2O[C@H]1CN(C)Cc1ccccc1F
 : -5[16.7 µM] | 2
- C[C@@H]1CCCCO[C@@H](CN(C)Cc2ccc3c(c2)OCO3)[C@@H](C)CN([C@H](C)CO)C(=O)c2cc(NC(=O)c3ccccc3)ccc2O1
 : 2[16.7 µM] | -4
- C[C@H](CO)N1C[C@H](C)[C@@H](CN(C)CC2CCCC2)Oc2ncc(C#Cc3cccc(F)c3)cc2C1=O
 : 28[16.7 µM] | -2

Following part.
Order of results: HIV Env fusion | UUG fidelity
- C[C@H]1CN([C@@H](C)CO)C(=O)c2cc(NS(C)(=O)=O)ccc2O[C@@H]1CN(C)S(=O)(=O)c1ccccc1
 : -28[16.7 µM] | 14
- Cc1noc(C)c1S(=O)(=O)N(C)C[C@@H]1OCCCC[C@@H](C)Oc2ccc(NC(=O)NC(C)C)cc2C(=O)N([C@H](C)CO)C[C@H]1C
 : -41[16.7 µM] | 1
- CCCC#Cc1ccc([C@H]2[C@@H](C#N)N(C(=O)CN3CCOCC3)[C@@H]2CO)cc1
 : -4[16.7 µM] | -4
- COCC(=O)N(C)C[C@H]1Oc2ncc(C#C[C@@H](C)O)cc2C(=O)N([C@H](C)CO)C[C@@H]1C
 : -104[16.7 µM] | 5
- C[C@H](CO)N1C[C@H](C)[C@H](CN(C)Cc2ccc(C(F)(F)F)cc2)Oc2c(NS(=O)(=O)c3cn(C)cn3)cccc2C1=O
 : -12[16.7 µM] | -9
- CO[C@H]1CN(C)C(=O)c2ccc(NC(=O)NC(C)C)cc2OC[C@H](C)N(C(=O)CN(C)C)C[C@H]1C
 : -13[16.7 µM] | 2
- Cc1ccc(S(=O)(=O)NCC[C@@H]2CC[C@@H](NC(=O)Nc3ccccc3F)[C@@H](CO)O2)cc1
 : -4[16.7 µM] | -7
- Cc1ccc(S(=O)(=O)Nc2ccc3c(c2)CC(=O)N([C@H](C)CO)C[C@@H](C)[C@H](CN(C)Cc2ccc(Oc4ccccc4)cc2)O3)cc1
 : 13[16.7 µM] | 11

Record cards, as listed above. Screens in order: HIV Env fusion	UUG fidelity
`C[C@H](CO)N1C[C@H](C)[C@H](CN(C)Cc2ccc(C(F)(F)F)cc2)Oc2c(NS(=O)(=O)c3cn(C)cn3)cccc2C1=O` across the screens: -12[16.7 µM]	-9
`CCCC#Cc1ccc([C@H]2[C@@H](C#N)N(C(=O)CN3CCOCC3)[C@@H]2CO)cc1` across the screens: -4[16.7 µM]	-4
`Cc1ccc(S(=O)(=O)Nc2ccc3c(c2)CC(=O)N([C@H](C)CO)C[C@@H](C)[C@H](CN(C)Cc2ccc(Oc4ccccc4)cc2)O3)cc1` across the screens: 13[16.7 µM]	11

The list is partial, so the mix of outcomes need not match the whole.
